Screening results deposited in PubChem BioAssay by several laboratories.
Mtb hypoxia rep = inhibitors of hypoxia-regulated fluorescent reporter in Mycobacterium tuberculosis; M. tuberculosis hypoxia-regulated fluorescent reporter, fluorescence; fluorescence inhibition, % (test concentration not listed); 0.1% of 300,000 active;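 active = 35 to 45% if threefold the growth effect, above 45% if 1.5-fold the growth effect; inactive = the rest, general growth blockers included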;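 note: wells of about 50 µL received 100 nL stock; 0% = vehicle wells and 100% = reference inhibitor wells; whole bacteria with a GFP reporter of the hypoxia response; strong numbers were not always called active; many hits fall short of the cut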
ugtP null kill = kills S. aureus RN4220 lacking UgtP | AID 1259309 | 0.54% of 330,000 active | growth inhibition, % (no concentration beside the values) | S. aureus RN4220 ugtP deletion, OD600 growth, 16 h; some inactives read as strong as hits;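 active = z-score under -3 and OD600 up to 0.15 on both plates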;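 note: plate controls were untreated wells for no effect and antibiotic for full effect; wells of about 80 µL received 100 nL stock; the first replicate is given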
PrP 5UTR inh = suppresses PrP 5' UTR mRNA reporter expression; cell-based PrP 5' UTR mRNA reporter, plate reader; inhibition, % (concentration not given with the values); 0.35% of 340,000 active; AID 488862;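 active = every replicate at 50% or more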;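 note: 0 = median of the neutral control wells; tested in H4 reporter cells; numbers are from one replicate; inactives centre near -14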
Autofluor counter = flagged as autofluorescent in microsphere protease counterscreen; compound autofluorescence counterscreen, microsphere flow cytometry; active compounds read high; fluorescence intensity (concentration not given with the values); 3.1% of 360,000 active;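 active = at least 3 SD above the mean of all compounds, about 16000 in these data; inconclusive = too few beads counted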;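 note: 100 nL of 1 mM stock went into each well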
BJeLR lethal = kills HRASV12-expressing BJeLR cells; BJeLR (HRASV12) viability, CellTiter-Glo ATP luminescence, 48 h; reference of the scale not given here; inhibition, % (test concentration not listed); 0.17% of 300,000 active; AID 1554;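 active = replicate mean above 50%; inconclusive = above 50% but judged a plate artefact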;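 note: 50 nL library stock added to about 25 µL; numbers are from one replicate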
Sa RN4220 lethal = kills Staphylococcus aureus RN4220; S. aureus RN4220 growth, OD600, 16 h; AID 1259311; 0.33% of 330,000 active; inhibition, % (test concentration not listed);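 active = z-score of -3 or lower and OD600 up to 0.18 on both plates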;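 note: plate controls were untreated cells for no effect and reference antibiotic for full effect; stock transfer was 100 nL into about 80 µL; one replicate is shown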
Mtb hypoxia rep growth = recorded beside Mtb hypoxia rep, whose call it bears; growth inhibition, %; measured here: M. tuberculosis growth (absorbance);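 0% = vehicle and 100% = reference antibiotic; read after six days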
The depositor's hits bear a star; ? = inconclusive; / = no result given. Compounds as they come; overall some 4% were active at least once.

#1 CC(C)(C)NCC(O)COCc1ccc(Cl)cc1 (configuration not stated)
#2 Cc1ncc2c(n1)-c1cc(F)ccc1SC2
#3 OC(C#CCCN1CCCCC1)(c1ccccc1)C1CCCCC1 (configuration not stated)
#4 O=C(Nc1nccs1)c1ccc(COc2ccccc2Cl)o1
#5 O=S1(=O)CCC(NC(=S)Nc2ccc3ccccc3c2)C1 (configuration not stated)
#6 CCOc1ccc(C(=O)NC2CCN(S(=O)(=O)c3ccccc3)CC2)cc1
#7 O=C(CCn1nc(-c2ccc(Cl)cc2)c2ccccc2c1=O)NCC1CCCO1 (configuration not stated)
#8 Cc1cc(C(=O)CSc2nnc(NCc3ccccc3)s2)c(C)n1C
assay / entry	1	2	3	4	5	6	7	8
Mtb hypoxia rep	/	5	4	2	2	-12	/	/
Mtb hypoxia rep growth	/	2	-5	5	6	-6	/	/
ugtP null kill	-1	-5	3	14	-4	4	4	9
PrP 5UTR inh	-10	/	-21	-38	-29	-7	4	-19
Autofluor counter	2481	3513	5184	3841	4201	2800	4103	4588
BJeLR lethal	-6	5	-4	3	-1	6	2	-8
Sa RN4220 lethal	-0.6	2.6	-0.3	-3.2	-0.7	0.2	0.7	0.2

#9 Cc1ccc(S(=O)(=O)NC(C)C(=O)Nc2ccccc2C(=O)N2CCCC2)cc1 (configuration not stated)
#10 COc1ccc(N(CC(=O)NCCSC2CCCCC2)S(=O)(=O)c2ccccc2)c(OC)c1
#11 CCOc1ccccc1NC(=O)C(=O)NN=Cc1ccc([N+](=O)[O-])cc1
#12 CCN(CC)S(=O)(=O)c1cccc(NC(=O)Nc2cccc(C(F)(F)F)c2)c1
#13 COc1cc(CN2CC(=O)N(c3cccc(Cl)c3C)C2=S)cc(OC)c1OC
#14 COc1ccc(Cn2c(C3CC3)nc3ccc(NC(C)=O)cc3c2=O)cc1
#15 CC(C)CC(=O)NNC(=O)C(C)C
#16 CCC(=O)Nc1ccccc1Nc1cc(C#N)c(C#N)cc1[N+](=O)[O-]
assay / entry	9	10	11	12	13	14	15	16
Mtb hypoxia rep	5	/	-6	4	8	/	-7	/
Mtb hypoxia rep growth	5	/	11	13	-2	/	-9	/
ugtP null kill	9	/	-3	65	-11	-6	5	5
PrP 5UTR inh	17	-14	/	-16	3	-87	-11	1
Autofluor counter	3260	4790	/	21515*	3583	2930	9706	2761
BJeLR lethal	1	-2	/	10	-4	3	-16	2
Sa RN4220 lethal	3.3	/	-2.5	32	13	0.6	-3.0	13

#17 COC(=O)/C=C/C(=O)N1CCN(c2ccccc2C)CC1
#18 COC(=O)CCCCCCCCC(O)C[N+]1(C)CCOCC1 (configuration not stated)
#19 O=C(Nc1ccccc1N1CCN(c2ccc(F)cc2)CC1)C12CC3CC(CC(C3)C1)C2
#20 CCCCn1c(=O)c2c(nc3n2CCCN3Cc2ccccc2)n(C)c1=O
#21 CC(=O)NS(=O)(=O)c1ccc(NC(=O)/C=C/c2ccccc2)cc1
#22 COc1ccccc1NC(=O)CSC(N)=O
#23 CCOc1ncccc1C(=O)N1CCN(S(=O)(=O)c2ccc3c(c2)OCCO3)CC1
#24 COc1ccc(C(=O)O)cc1S(=O)(=O)NCc1cccnc1
assay / entry	17	18	19	20	21	22	23	24
Mtb hypoxia rep	16	-10	2	11	7	0	1	2
Mtb hypoxia rep growth	17	8	3	0	7	8	2	4
ugtP null kill	-4	2	-22	8	0	8	3	-4
PrP 5UTR inh	-24	/	-25	-5	-17	-14	-11	-13
Autofluor counter	2504	5670	3296	3569	4431	2700	2921	3701
BJeLR lethal	0	-11	0	8	-3	-4	/	4
Sa RN4220 lethal	9.0	2.6	-3.2	1.4	3.7	-8.2	6.7	-1.6

#25 Cc1[nH]c2ccccc2c1/C=C/c1nc2ccccc2c(=O)[nH]1
#26 CC(=O)Nc1nc(C(=O)Nc2c(C)n[nH]c2C)cs1
#27 O=C(NC1CCCN(Cc2ccc(Cl)cc2)C1)c1c(F)cccc1F (configuration not stated)
#28 COc1ccc(/C=C2\C(=O)NC(=S)N2C(=O)c2ccc(F)cc2)cc1
#29 CC(=O)CCC(=O)NC1CCCc2c1cnn2-c1ccc(C(C)(C)C)cc1 (configuration not stated)
#30 CCN(CC)S(=O)(=O)c1cccc(C(=O)Nc2nnc(C)s2)c1
#31 NS(=O)(=O)c1ccc(NC(=O)COC(=O)COc2ccc(Br)cc2)cc1
#32 CCc1cc(-c2nc(N)ncc2-c2ccc(Br)cc2)c(O)cc1OC
assay / entry	25	26	27	28	29	30	31	32
Mtb hypoxia rep	16	5	-4	-1	9	-4	-7	-17
Mtb hypoxia rep growth	13	9	11	2	7	-2	5	-4
ugtP null kill	2	1	4	74	12	12	7	19
PrP 5UTR inh	/	/	-22	-6	-12	-14	-18	-32
Autofluor counter	3395	9929	4393	2644	3684	4735	4987	4698
BJeLR lethal	-2	2	-1	0	4	5	5	-4
Sa RN4220 lethal	21	6.4	-0.6	48	5.3	2.8	3.7	-11

Exported with values under each structure: 11 of the compounds above.
Order of results: Mtb hypoxia rep	Mtb hypoxia rep growth	ugtP null kill	PrP 5UTR inh	Autofluor counter	BJeLR lethal	Sa RN4220 lethal
#21 CC(=O)NS(=O)(=O)c1ccc(NC(=O)/C=C/c2ccccc2)cc1
 : 7	7	0	-17	4431	-3	3.7
#22 COc1ccccc1NC(=O)CSC(N)=O
 : 0	8	8	-14	2700	-4	-8.2
#23 CCOc1ncccc1C(=O)N1CCN(S(=O)(=O)c2ccc3c(c2)OCCO3)CC1
 : 1	2	3	-11	2921	/	6.7
#24 COc1ccc(C(=O)O)cc1S(=O)(=O)NCc1cccnc1
 : 2	4	-4	-13	3701	4	-1.6
#25 Cc1[nH]c2ccccc2c1/C=C/c1nc2ccccc2c(=O)[nH]1
 : 16	13	2	/	3395	-2	21
#26 CC(=O)Nc1nc(C(=O)Nc2c(C)n[nH]c2C)cs1
 : 5	9	1	/	9929	2	6.4
#27 O=C(NC1CCCN(Cc2ccc(Cl)cc2)C1)c1c(F)cccc1F (configuration not stated)
 : -4	11	4	-22	4393	-1	-0.6
#28 COc1ccc(/C=C2\C(=O)NC(=S)N2C(=O)c2ccc(F)cc2)cc1
 : -1	2	74	-6	2644	0	48
#29 CC(=O)CCC(=O)NC1CCCc2c1cnn2-c1ccc(C(C)(C)C)cc1 (configuration not stated)
 : 9	7	12	-12	3684	4	5.3
#30 CCN(CC)S(=O)(=O)c1cccc(C(=O)Nc2nnc(C)s2)c1
 : -4	-2	12	-14	4735	5	2.8
#31 NS(=O)(=O)c1ccc(NC(=O)COC(=O)COc2ccc(Br)cc2)cc1
 : -7	5	7	-18	4987	5	3.7

Going on with the list.
#33 CC1CCN(C(=O)C2CCCCN2S(=O)(=O)c2cccc([N+](=O)[O-])c2)CC1 (configuration not stated)
#34 Cc1nn(CC(=O)OCC(=O)Nc2cccc(S(N)(=O)=O)c2)c(C)c1[N+](=O)[O-]
#35 CC(=O)Oc1ccccc1C(=O)Nc1ccccc1
#36 CCCCN(C(=O)Cc1ccc2c(c1)OCCO2)c1c(N)n(CC(C)C)c(=O)[nH]c1=O
#37 CCOc1ncccc1C(=O)Nc1ccccc1F
#38 COc1cc(C2CC(c3cccnc3)=NN2c2ccc(F)cc2)cc(OC)c1OC (configuration not stated)
#39 CC1Cc2nc(SCC(=O)c3ccccc3)n(Cc3ccccc3)c(=O)c2S1 (configuration not stated)
#40 COc1ccc(OCC(=O)Nc2cc(S(=O)(=O)N3CCCC3)ccc2Cl)cc1
assay / entry	33	34	35	36	37	38	39	40
Mtb hypoxia rep	10	10	3	5	14	7	-1	1
Mtb hypoxia rep growth	13	5	7	6	-3	-2	4	-7
ugtP null kill	10	8	3	2	5	1	1	1
PrP 5UTR inh	-17	-9	-49	-15	1	-2	-20	-17
Autofluor counter	3967	3701	3862	5993	3979	2292	6821	/
BJeLR lethal	-2	/	0	/	-10	/	1	/
Sa RN4220 lethal	5.6	6.1	6.0	1.4	5.1	0.0	-5.1	-0.8

#41 CCOc1ccccc1/C=C/c1onc(C)c1S(=O)(=O)N1CCC(C(=O)N2CCCCCC2)CC1
#42 CC(=O)c1c(N2CCN(Cc3ccccc3)CC2)[nH]c(-c2ccccc2)nc1=S
#43 CCc1ccc(CNCCc2ccc(F)cc2)cc1
#44 CCSc1nnc(-c2ccc(C)cc2)c2ccccc12
#45 COc1ccc(Cl)cc1NC(=O)CN(C)C(=O)C1CC(=O)N(Cc2ccc(C)cc2)C1 (configuration not stated)
#46 O=C1C2(CCC13COC(c1ccc(O)cc1)OC3)COC(c1ccc(O)cc1)OC2 (configuration not stated)
#47 CC(C)c1ccc(/C=N/NC(=O)c2ccccc2Cl)cc1
#48 O=C(c1cccc(C(F)(F)F)c1)N1CCOC12CCN(c1ncc(C(F)(F)F)cc1Cl)CC2
assay / entry	41	42	43	44	45	46	47	48
Mtb hypoxia rep	10	8	12	15	4	5	/	8
Mtb hypoxia rep growth	1	9	9	7	-1	16	/	5
ugtP null kill	-4	1	-5	3	4	-2	/	-22
PrP 5UTR inh	-5	7	-15	-5	-20	-54	-27	-15
Autofluor counter	?	?	2221	2015	4558	22568*	4189	2433
BJeLR lethal	-1	-6	5	3	9	5	8	2
Sa RN4220 lethal	-4.1	-1.2	2.5	4.5	3.5	-1.2	/	-3.4

#49 CCOC(=O)c1c(N)sc(C(=O)N2CCCCC2)c1C
#50 O=C1C(=O)N(CCN2CCOCC2)C(c2ccc([N+](=O)[O-])cc2)/C1=C(/O)c1ccc2c(c1)OCO2 (configuration not stated)
#51 COc1ccc(OCCn2ccnc2)cc1
#52 COc1ccc(CNC(=O)c2coc(=O)c3ccccc23)c(OC)c1
#53 O=C(CCn1nc(-c2ccccc2)c2ccccc2c1=O)NN1CCOCC1
#54 CC(Sc1nc2ccccc2n1C)C(=O)Nc1ccc(N2CCOCC2)cc1 (configuration not stated)
#55 C=CCN1CCc2c(cc(O)c(O)c2Br)C(c2ccccc2)C1 (configuration not stated)
#56 COc1cc(NC(=O)C2=C(C)OCCS2)c(Cl)cc1C(=O)NCCN(C)C
#57 C#CCN(C)CC/C=C1\c2ccccc2CSc2ccccc21
#58 CN1C(=O)C(O)(C2OC(C)(C)CCC2=O)c2ccccc21 (configuration not stated)
assay / entry	49	50	51	52	53	54	55	56	57	58
Mtb hypoxia rep	22	7	-3	12	0	-5	-8	4	5	15
Mtb hypoxia rep growth	-17	-4	6	6	0	7	-2	-2	-4	9
ugtP null kill	-10	13	2	4	2	-11	-8	-5	47	-4
PrP 5UTR inh	-19	-2	-28	-18	-5	-21	/	6	-6	-18
Autofluor counter	/	4927	3725	5208	4842	4150	/	3260	3424	10922
BJeLR lethal	-18	-4	1	5	-5	1	/	-3	-1	-8
Sa RN4220 lethal	-18	4.7	2.9	4.7	1.7	-1.8	4.7	2.7	-2.2	2.4
